High-throughput results: PubChem BioAssay, ICCB-Longwood Screening Facility, Harvard Medical School
GIV Gai3 FP = GIV-Galpha-i interaction inhibition | P08753 | Galpha-i3/FITC-GIV peptide fluorescence polarization, 90 min; active compounds read low; scaled: aluminum fluoride 0%, vehicle 100% | percent of control (FP), % (no concentration beside the values) | 210,000 compounds, 0.42% hits | AID 1224905;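 active means replicate mean at 85% of control or lower, very high polarization wells dropped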;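 further: wells of about 15 µL received 100 nL stock; the first replicate is given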
Target sequence (P08753 whole entry, looked up): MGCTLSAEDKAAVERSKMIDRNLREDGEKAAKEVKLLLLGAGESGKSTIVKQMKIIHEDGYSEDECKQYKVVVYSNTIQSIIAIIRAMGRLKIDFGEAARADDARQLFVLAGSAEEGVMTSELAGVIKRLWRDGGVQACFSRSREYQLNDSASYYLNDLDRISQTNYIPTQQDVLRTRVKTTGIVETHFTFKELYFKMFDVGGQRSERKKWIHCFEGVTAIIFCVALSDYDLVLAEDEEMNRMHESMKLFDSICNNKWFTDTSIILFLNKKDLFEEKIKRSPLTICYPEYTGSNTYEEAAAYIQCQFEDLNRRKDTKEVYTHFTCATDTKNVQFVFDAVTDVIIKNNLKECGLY
Sa growth inh = blocks Staphylococcus aureus growth; S. aureus RN4220 growth, OD600, 20 h, 42 °C; active compounds read low; relative growth, % (no concentration beside the values); 170,000 compounds, 0.53% hits;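 active means growth at 42 °C up to 50% and 20 or more points under that at 30 °C, or under 10% at both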;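 further: 300 nL library stock went into each well; scaled to the means of positive and negative controls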
HCMV UL50-53 inh = inhibitors of HCMV UL50-UL53 nuclear egress complex interaction; HTRF UL50-UL53 interaction, normalized percent inhibition; 190,000 compounds, 0.15% hits; inhibition, % (test concentration not listed);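 active means both replicates at 50% or more, plus weaker picks with an unusually low signal ratio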;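 further: stock transfer was 100 nL into about 20 µL; 0% = negative control wells and 100% = wells with untagged competitor protein; inactives centre near -12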
Sa growth inh second temp = second read-out of Sa growth inh, no call of its own (marks repeat the call); relative growth, %; measured here: growth at 30 °C;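 optical density after 20 h as mean of two plates; 100% = untreated growth and lower means inhibition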
The depositor's hits bear a star; nt = not tested or not shown; & = joins results of further samples.

Below each compound – GIV Gai3 FP, HCMV UL50-53 inh, Sa growth inh second temp, Sa growth inh
O=C1Nc2ccccc2/C1=N\N1C(=O)/C(=C/c2ccccc2)N=C1c1ccccc1
  nt, -81.7, 49.2, 72.2
CCn1c(Cn2nnc(-c3ccccc3)n2)nc2cc(S(=O)(=O)N(C)C)ccc21
  nt, -12.7, 86.7, 89.3
Cc1sc(NC(=O)c2ccccc2F)c(C(=O)c2ccc(Cl)cc2)c1C
  nt, 7.0, 97.1, 88.0
COc1ccccc1N1CCN(/N=C/c2sccc2C)CC1
  nt, -16.7, 85.1, 91.6
CCOc1ccc(NC(=O)CNS(=O)(=O)c2ccc3c(c2)C(C)(C)C(=O)N3C)cc1
  101.3, nt, 80.3, 114.2
OC(COCc1ccccc1)C[N+]1(Cc2ccccc2)CCOCC1 (stereo unspecified)
  nt, -22.9, 68.3, 89.3
COc1ccc(S(=O)(=O)Nc2cccc(-c3ccc(N4CCC(C)CC4)nn3)c2)c(OC)c1
  103.5, nt, 95.8, 112.9
Cc1ccc(/C=C/c2onc(C)c2S(=O)(=O)N2CCCC(C(=O)N3CCc4ccccc43)C2)cc1 (stereo unspecified)
  101.4, -8.4, nt, nt
O=S(=O)(/N=C(/Nc1cc(N2CCOCC2)ncn1)c1ccc(F)cc1)c1ccccc1
  102.5, -5.0, 94.9, 113.3
Cn1c(=O)oc2cc(S(=O)(=O)N3CCCC(C(=O)NCCc4ccccc4)C3)ccc21 (stereo unspecified)
  103.3, -40.6, 89.6, 93.3
CCC(=O)N1CCc2cc(S(=O)(=O)NCCC(=O)Nc3ccc(C)cc3C)ccc21
  105.7, -29.1, 91.2, 101.6
O=C(c1ccc(Cl)cc1)c1ccc(S(=O)(=O)c2ccc(Cl)cc2)cc1
  99.4, nt, 86.0, 140.3
CCOC(=O)C1C(=S)NC(N)=C(C#N)C12CCCCC2 (stereo unspecified)
  nt, -11.3, 77.3, 104.3
C=CCSc1nc2c(c(=O)[nH]1)C(c1ccc(O)c(O)c1)CC(=O)N2 (stereo unspecified)
  103.5, -6.7, nt, nt
O=C(CCCc1ccccc1)NC1CC(=O)N(c2cccc(F)c2)C1 (stereo unspecified)
  108.1, nt, 100.1, 121.3
CC(CNC(=O)Cn1ncc2ccccc21)c1ccccc1 (stereo unspecified)
  106.2, nt, 87.5, 104.1
CCOc1ccc(-c2ccc(NS(=O)(=O)c3ccccc3)cc2)nn1
  103.6, -24.6, 87.3, 98.1
C=CCN1C(=O)c2ccccc2N2C(=O)CCC12C(=O)NCc1ccccc1 (stereo unspecified)
  nt, -0.9, 89.4, 104.8
C(=C\c1nc(-c2ccncc2)no1)/c1ccccc1
  105.5, -105.4, nt, nt
Cc1ccc(CCNC(=O)c2cccn3c(=O)c4c5c(sc4nc23)CCCC5)cc1
  104.9, nt, 89.6, 80.8
CCOC(=O)c1cc2c(=O)n3ccccc3nc2n(Cc2ccco2)c1=NC(=O)c1ccccc1Br
  120.3, -23.7, 82.7, 102.6
COc1cc2c(cc1OC)CN(S(=O)(=O)c1cc(N3C(=O)CCS3(=O)=O)ccc1OC)CC2
  99.8, -9.3, nt, nt
CCCn1cnc2cc(NCc3ccc(C)cc3)ccc21
  98.5, -17.6, nt, nt
CNC(=O)C1CCC(Cn2c(=O)c3sccc3n(CC(=O)N3CCCC(C)C3)c2=O)CC1 (stereo unspecified)
  94.7, nt, 88.0, 79.1
O=S(=O)(NC1CCCC1)c1ccc(Br)cc1
  96.5, -13.9, 82.7, 98.8
CN(C)S(=O)(=O)c1ccc(-c2n[nH]c(=S)n2-c2ccc(Cl)cc2)cc1
  104.2, 1.2, 75.3, 104.0
CC(=O)Nc1ccc(S(=O)(=O)NC2=NCN(C3CCN(Cc4ccccc4)CC3)CN2)cc1
  97.3, 5.9, 95.5, 97.0
COc1ccc(S(=O)(=O)Nc2cc(C(=O)O)cnc2N2CCC(Cc3ccccc3)CC2)cc1
  102.2, -37.7, nt, nt
O=C(OCc1ccc2nonc2c1)c1cc(-c2ccccc2)nc2ccccc12
  105.0, -1.6, 101.8, 100.1
CC(C)c1ccc(S(=O)(=O)NCc2ccc3c(c2)CCN3C(=O)c2ccccc2)cc1
  101.9, nt, 85.6, 83.6

Four entries from above, bar-delimited:
canonical_smiles | GIV Gai3 FP | HCMV UL50-53 inh | Sa growth inh second temp | Sa growth inh
CCOC(=O)c1cc2c(=O)n3ccccc3nc2n(Cc2ccco2)c1=NC(=O)c1ccccc1Br | 120.3 | -23.7 | 82.7 | 102.6
COc1cc2c(cc1OC)CN(S(=O)(=O)c1cc(N3C(=O)CCS3(=O)=O)ccc1OC)CC2 | 99.8 | -9.3 | nt | nt
CCCn1cnc2cc(NCc3ccc(C)cc3)ccc21 | 98.5 | -17.6 | nt | nt
CNC(=O)C1CCC(Cn2c(=O)c3sccc3n(CC(=O)N3CCCC(C)C3)c2=O)CC1 (stereo unspecified) | 94.7 | nt | 88.0 | 79.1

Further records:
Below each compound – GIV Gai3 FP, HCMV UL50-53 inh, Sa growth inh second temp, Sa growth inh
COc1ccccc1CNC(=O)CNC1CCCCC1
  nt, 4.1, 90.0, 96.2
COc1ccc2oc(=O)c(C(=O)Nc3cccc(C(=O)O)c3)cc2c1
  100.6, -181.7, 81.0, 95.1
CC(C(=O)NCCCN1CCN(C2CCCCC2)CC1)n1ncn2cccc2c1=O (stereo unspecified)
  100.9, -26.5, 78.6, 101.5
O=C(O)c1ccccc1C(=O)N1CCc2c([nH]c3ccccc23)C1C(F)(F)F (stereo unspecified)
  95.5, 2.1, 87.7, 147.5
COc1ccc(CNC(=O)Nc2cn(CC(C)C)c(=O)c3ccccc23)cc1
  101.8, nt, 86.2, 83.3
NS(=O)(=O)c1ccc(Cl)cc1F
  nt, -31.9, 83.0, 87.6
O=C(NCCCN1CCCC1)C1CCN(c2nc3ccccc3n3cccc23)CC1
  105.3, 5.4, 94.1, 118.5
COC(=O)c1sc(-c2ccc(Cl)cc2)cc1NC(=O)/C=C/C(=O)O
  97.1, -35.0, 91.4, 88.6
Cc1cc(NC(=O)CSCC(=O)O)no1
  110.7, -2.2, 97.5, 94.2
Cc1c(C(=O)OCC2CCCCC2)[nH]c2c1C(=O)CC(c1ccccc1Cl)C2 (stereo unspecified)
  103.3, -10.2, 93.0, 109.1
Nc1nc(-c2ccccc2)c(N=Nc2ccc3c(c2)OCO3)s1
  nt, -19.3, 95.6, 89.6
COc1ccc(-n2nc(C(=O)N(C)c3cccc(C(F)(F)F)c3)c3c4ccccc4n(C)c3c2=O)cc1
  111.7, 16.2, 97.2, 101.3
COC(=O)c1ccc(-c2nc3cnccn3c2Nc2ccc3c(c2)OCO3)cc1
  101.9, -18.8, nt, nt
Cc1ccc(NC(=O)C2CCCN(S(=O)(=O)c3c(C)n[nH]c3C)C2)c(C)c1 (stereo unspecified)
  100.3, 11.7, 100.2, 105.2
CC(C)NC(=O)CSc1c2c(nc3ccccc13)CCCC2
  101.1, -10.4, 88.0, 113.7
CCCCCOc1ccc(/C=C/C(=O)Nc2sc(C)c(C)c2C(=O)OCC)cc1OC
  103.8, 7.3, 96.5, 96.2
CN1C(=O)C2N=NN(c3ccccc3)C2C1=O (stereo unspecified)
  108.5, -55.5, 102.1, 106.8
Cc1ccc(NC(=S)N2CCCN(c3ncc(C(F)(F)F)cc3Cl)CC2)c(C)c1
  104.6, 4.3, 38.2, 66.5
CCOC(=O)c1c(CN2CCCCC2)oc2ccc(OC)cc12
  102.4, -6.5, 89.9, 78.2
COCCSc1nc2c([nH]c3ccccc32)c(=O)n1-c1ccc(OC)c(OC)c1
  110.0, nt, 102.7, 119.5
Cc1ccccc1NC(=O)COC(=O)c1cccc(S(=O)(=O)N2CCCC2)c1
  nt, -24.7, 93.5, 102.5
O=c1o[nH]c(-c2ccccc2F)c1C=Nc1ccc(Cl)cn1
  nt, -33.3, 75.1, 96.2
O=C(COC(=O)/C=C/c1ccc(F)cc1)Nc1ncc(C(F)(F)F)cc1Cl
  nt, -17.4, 86.5, 112.5
COc1ccccc1Nc1ncccc1C(=O)Nc1ccnn1C(C)C
  nt, -32.3, 92.1, 102.4
O=C(CSc1nc2sc3c(c2c(=O)[nH]1)CCCC3)N1CCOCC1
  nt, -7.0, 92.2, 102.5
Cc1csc2sc(C(=O)c3ccc(Cl)cc3)c(C)c12
  105.2, -24.4, 83.8, 99.6
O=C(NCCc1ccccc1F)C1CC(=O)N(c2ccccc2)C1 (stereo unspecified)
  102.1, -4.1, 93.0, 106.0
O=c1cc(CNCc2ccccc2)nc2nc(NCc3ccccc3Cl)[nH]n12
  100.3, -22.7, nt, nt
CC1=C(C(=O)OCC2CCCCC2)C(c2ccccc2C)CC(=O)N1 (stereo unspecified)
  99.4, -27.6, nt, nt
O=C(c1ccc2c(c1)OCO2)N1CCNc2ccccc2C1
  nt, -0.3, 82.8, 100.7
O=C(CSc1ncc(S(=O)(=O)c2ccccc2)c(=O)[nH]1)Nc1ccccc1Cl
  99.1, -2.1, 105.8, 133.5
CCOC(=O)c1c(NC(=O)CN2C(=O)c3cccc4cccc(c34)C2=O)sc2c1CCC2
  105.4, -23.1, nt, nt
COc1cccc(Nc2sc(C(=O)c3ccc(Cl)cc3)c(N)c2C(=O)NCCc2ccc(OC)c(OC)c2)c1
  98.8, nt, 69.3, 105.5
O=c1[nH]c2ccc(Oc3ccc4[nH]c(=O)c(=O)[nH]c4c3)cc2[nH]c1=O
  122.8, -9.4&-21.5, 74.3&83.2, 110.0&93.5
COC(=O)c1ccccc1NC(=O)Cn1cc(S(=O)(=O)N2CCC(C)CC2)c2ccccc2c1=O
  101.3, -6.7, 87.8, 83.5
CCCCNc1nc(Oc2ccc(=O)n(-c3ccccc3)n2)nc(N(CC)CC)n1
  106.3, -14.5, 89.1, 79.7
O=S(=O)(c1ccc(F)c(F)c1)N1CCN(C(c2ccccc2)c2ccccc2)CC1
  nt, -20.8, 89.5, 99.5
O=C(CSc1nccn2nc(-c3ccc(Cl)cc3)cc12)Nc1cc(F)ccc1F
  103.6, 11.0, nt, nt
O=C(Cc1cc(F)cc(F)c1)NCc1ccco1
  100.4, -2.7, 75.7, 110.1
COc1cccc(NC(=O)Nc2ncc(-c3ccccc3)n2C)c1
  104.4, -16.4, nt, nt
CC(CCc1ccccc1)NCc1c(C(=O)O)n(C)c2ccccc12 (stereo unspecified)
  98.5, nt, 88.1, 105.5
O=C(OCc1cc(Cl)cc2c1OCOC2)c1cccnc1Cl
  nt, -4.9, 91.2, 108.2
Cc1c(C)c(C)c(S(=O)(=O)N2CC(C)CC(C)C2)c(C)c1C (stereo unspecified)
  101.0, -16.9, 93.1, 94.2
Cc1c(Cl)cnc(NC(=O)COC(=O)C2CC2)c1Cl
  nt, 1.9, 73.1, 72.5
O=c1[nH]nc(SCc2nc3ccccc3s2)n1C1CC1
  nt, -14.8, 86.7, 97.7
O=C(OCc1ccccc1F)c1ccc(-c2nnn(Cc3ccccc3)n2)cc1
  107.7, 4.9, 106.5, 99.7
CON(C)C(=O)c1ccc(C(C)(C)C)cc1
  98.1, -4.3, 101.8, 103.4
COc1ccc(C(=O)N(Cc2ccc(N(C)C)cc2)CC2CCCO2)cc1 (stereo unspecified)
  102.3&106.6, -30.7&-19.7, 83.4, 96.5
CCCN(CCC)C(=O)C1CCCN(S(=O)(=O)c2cc(Br)cc3c2N(C(=O)CC)CC3)C1 (stereo unspecified)
  102.7, -16.4, 98.5, 106.9
CC(=O)Nc1cc2c(cc1N1CCCCC1)n(C)c(=O)c(=O)n2C
  108.0, 0.2, nt, nt
C=CCNC(=O)CSc1ncc2c(n1)-c1c(csc1SC)CC2
  100.9, -20.1, 85.2, 99.7
CCOC(=O)c1c(C)c(S(=O)(=O)N2CCOCC2)c(C)n1C
  104.2, -24.5, nt, nt
COc1ccc(C2CC(=O)N(c3ccccc3)C(=O)C2)cc1OC
  95.8, -22.6, nt, nt
CSC(=NC#N)N1CCN(C(=NC#N)SC)CC1
  104.6, -29.3, 90.6, 93.8
Cc1ccc(-c2nnsc2-c2nc3ccccc3[nH]2)cc1
  nt, -29.0, 78.4, 110.4
COc1ccc(Cn2ccc3nc(C)c(C(=O)NCc4ccc(SC)cc4)cc3c2=O)cc1
  99.4, nt, 95.4, 102.3
CCn1c(C(=O)NCc2ccccc2Cl)cc2sc(Cl)cc21
  106.9, -8.4, 96.2, 110.3
CC1CCCN(S(=O)(=O)c2ccc3c(c2)CCN3C(=O)CCCC(=O)O)C1 (stereo unspecified)
  97.2, -6.3, 94.8, 124.0
CCOc1ccc(NC(=O)CN2CCN(Cc3ccccc3Cl)S2(=O)=O)cc1
  99.5, -25.6, nt, nt
Cc1ccc(NC(=O)c2cc(S(=O)(=O)N3CCCC3)c[nH]2)c(C)c1
  110.4, nt, 94.8, 88.9

(listing goes on)
Below each compound – GIV Gai3 FP, HCMV UL50-53 inh, Sa growth inh second temp, Sa growth inh
CCNC(=O)Oc1noc2ccccc12
  107.3, 3.0, 95.2, 102.3
CCC1=NN(C(=O)c2ccccc2O)C(O)(c2ccccc2)C1 (stereo unspecified)
  120.4, -22.2, 14.9, 50.0
Cn1c(=O)n(C)c2cc(Br)c(N)cc21
  101.2, 12.2, 83.5, 101.0
CCOc1cc(/C=c2\sc3nc4c(C)c(C)ccc4n3c2=O)cc(Br)c1OCC(=O)O
  110.3, -4.0, nt, nt
CCOC(=O)c1c(C)c(S(=O)(=O)Nc2cc(Cl)c(OC)cc2OC)c(C)n1C
  107.9, 2.6, nt, nt

Not a hit list. Share with any hit: about 0.8%.
